Source: PubChem BioAssay
StopGo reporter = High Throughput Screening for Foot and Mouth Disease Virus Antivirals; human cells with a luciferase reporter of 2A StopGo recoding; control for the full effect not named in the record; Potency, µM (top dose mostly 57.9 µM), without a hit: top-dose signal change, negative = less light; 410,000 compounds, 1.2% hits; active = well fitted falling curve with a large enough effect; inconclusive = small, poorly fitted or top-dose-only effect; inactive = no such curve, though single readings can be large or run the other way; tested in HEK293T cells; note: % is set by controls: 0 for no effect and ±100 for the full control effect; nearly all actives have a fitted effect of over 45% in size; luciferase light after 4 h
Marburg entry inh = qHTS for inhibitors of binding or entry into cells for Marburg Virus; Marburg virus pseudotyped entry inhibition, cell reporter; control for the full effect not named in the record; about a third of the inactives were read at about 46 µM; 300,000 compounds, 1.8% hits; Potency, µM (top dose mostly 37.8 µM), without a hit: at the top dose activity change, negative = inhibition, most hits filed as inhibitors; active = well fitted inhibition curve with a large enough effect; inconclusive = small, poorly fitted or top-dose-only effect, or effect the other way; inactive = flat fitted curve, though single readings scatter; tested in HEK293 cells; about a fifth of its hits are not listed in these tables; note: % is set by controls: 0 for no effect and ±100 for the full control effect; luciferase read-out
Cruzain Triton = qHTS Assay for Promiscuous and Specific Inhibitors of Cruzain (with detergent). Potency, µM, without a hit: max response, negative = inhibition, hits mostly inhibitors. 200,000 compounds, 0.43% hits. Cruzipain (Trypanosoma cruzi), P25779. purified cruzain, Z-FR-AMC fluorescence, 0.01% Triton; active = well fitted curve in the direction sought with a large enough effect; inconclusive = small, poorly fitted or top-dose-only effect, or another doubt; inactive = no such curve, though single readings can be large; an effect the other way counts as inactive or inconclusive;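 note: plate controls were neutral wells for no effect and buffer without enzyme for full effect; nearly all actives have a fitted effect of over 40% in size; top concentration of the series not given in the record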
Target sequence (P25779 123-467 limits assumed): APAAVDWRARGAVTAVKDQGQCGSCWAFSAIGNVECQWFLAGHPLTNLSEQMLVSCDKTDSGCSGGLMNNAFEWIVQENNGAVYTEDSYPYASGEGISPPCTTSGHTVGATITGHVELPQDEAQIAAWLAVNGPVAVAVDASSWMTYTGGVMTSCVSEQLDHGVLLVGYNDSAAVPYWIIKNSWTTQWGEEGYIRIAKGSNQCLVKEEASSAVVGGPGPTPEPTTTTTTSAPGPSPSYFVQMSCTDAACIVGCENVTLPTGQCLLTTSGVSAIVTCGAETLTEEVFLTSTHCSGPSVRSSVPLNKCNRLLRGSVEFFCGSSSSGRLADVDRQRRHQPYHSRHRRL
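Detergent-containing run (0.01% Triton X-100) in acetate buffer pH 5.5 with 5 mM DTT: enzyme at 1.5 nM final, 15 min compound preincubation at room temperature, then 2 uM Z-FR-AMC substrate. Activity taken as 60 s fluorescence increase at 360/450 nm.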
NS1 function inh = qHTS Assay for Inhibitors of Influenza NS1 Protein Function. S. cerevisiae slowed by influenza A NS1, growth recovery by OD600. Potency, µM (titrated, usually from 46.1 µM), inactives show at the top dose activity, positive = more growth. 270,000 compounds, 0.4% hits; note: actives are rising curves; nearly all actives have a fitted effect of over 50% in size
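In this qHTS, NS1 from influenza A is expressed in budding yeast, where it slows growth. Cells are switched from glucose to 2% galactose medium (pH 6.0, -URA), treated with compound, and growth recovery is read at OD600.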
Cruzain inh noDet = qHTS Assay for Promiscuous and Specific Inhibitors of Cruzain (without detergent). Cruzipain (Trypanosoma cruzi), P25779. purified cruzain, Z-FR-AMC fluorescence, no detergent. Potency, µM, for inactives: max response, negative = inhibition, actives largely listed as inhibitors. 200,000 compounds, 2.3% hits. AID 1476, 2009; active = well fitted curve in the direction sought with a large enough effect; inconclusive = small, poorly fitted or top-dose-only effect, or another doubt; inactive = no such curve, though single readings can be large; an effect the other way counts as inactive or inconclusive;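 note: plate controls were enzyme without inhibitor for no effect and buffer without enzyme for full effect; nearly all actives have a fitted effect of over 40% in size; top concentration of the series not given in the record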
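Detergent-free condition (0.00005% Triton X-100) in acetate buffer pH 5.5 with DTT. 1.5 nM enzyme and compound were pre-mixed 15 min, then 2 uM Z-FR-AMC substrate added; reaction progress from fluorescence change between first and third reads (60 s).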
RE007 growth inh = qHTS Assay for Inhibitors of the HIV-1 protein Vpr. Potency, µM (highest dose often 92.2 µM), inactives show at the highest dose activity change, negative = less growth. S. pombe RE007 Vpr strain, BacTiter-Glo ATP luminescence, 24 h; control for the full effect not named in the record. AID 651644, 2012. 360,000 compounds, 0.21% hits; active = well fitted falling curve with a large enough effect; inconclusive = small, poorly fitted or top-dose-only effect; inactive = no such curve, though single readings can be large or run the other way;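 note: % is set by controls: 0 for no effect and ±100 for the full control effect; nearly all actives have a fitted effect of over 50% in size; the assay follows cell death caused by Vpr and the record does not say whether a fall means rescue or toxicity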
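Fission yeast strain RE007, carrying one chromosomally integrated HIV-1 vpr copy, was seeded at OD 0.01 in PMG+AL medium with 23 nL pinned compound. After 24 h at 30 °C and 99% humidity, viability was read by BacTiter-Glo luminescence.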
SARS PLpro yeast = qHTS of Yeast-based Assay for SARS-CoV PLP; S. cerevisiae expressing SARS-CoV PLpro, growth rescue; control for the full effect not named in the record; Potency, µM (highest dose often 32.9 µM), inactives show top-dose activity, positive = growth rescue; 330,000 compounds, 0.19% hits; note: 0% is about no effect; nearly all actives have a fitted effect of over 55% in size; growth read by luminescence after 48 h
LASV entry inh = qHTS for Inhibitors of binding or entry into cells for Lassa Virus; Lassa virus pseudotype entry inhibition, cell reporter; control for the full effect not named in the record; AID 540256, 2011; 300,000 compounds, 1.2% hits; Potency, µM (doses to about 37.9 µM), for the others: at the highest dose activity change, negative = inhibition, usual class: inhibitors; active means well fitted inhibition curve with a large enough effect; inconclusive means small, poorly fitted or top-dose-only effect, or effect the other way; inactive means flat fitted curve, though single readings scatter; tested in HEK293 cells; note: % is set by controls: 0 for no effect and ±100 for the full control effect; nearly all actives have a fitted effect of over 50% in size; luciferase read-out
The depositor's hits bear a star; ? = inconclusive; . = not tested or not shown; & = joins results of further samples; [ ] = remark or other dose. Unless noted, calls come from the whole dose curve; as a rule, active means well fitted rising curve with a large enough effect; inconclusive means small, poorly fitted or top-dose-only effect; inactive means no such curve, though single readings can be large or run the other way. Potency is the fitted concentration of half-maximal effect. Outcome played no part in choosing rows (roughly 4.7% active in at least one column).

SMILES | StopGo reporter | Marburg entry inh | Cruzain Triton | NS1 function inh | Cruzain inh noDet | RE007 growth inh | SARS PLpro yeast | LASV entry inh
COc1ccc(SCCN2CCN(C)CCC2=O)cc1 | -8% | . | . | ? | . | 10% | 0% | .
Cc1cc(NC(=O)c2ccc(NC(=O)C(C)C)cc2)no1 | 40%[activator] | ? | -1.5% | -12% | -2% | 2% | -1% | 19%
CC(C)CN(C(=O)CSc1nnnn1C)C1CCS(=O)(=O)C1 (centres undefined) | -16% | . | . | 0% | . | 1% | 4% | .
CN(CCOc1ccc(Br)cc1)CC(O)c1ccccc1 (centres undefined) | -10% | . | . | -4% | . | -10% | 0% | .
CC(C)CN(C(=O)COC(=O)c1cnccn1)c1c(N)n(Cc2ccccc2)c(=O)[nH]c1=O | -2% | 18% | . | . | . | 4% | -1% | 6%
Cc1c(Cl)cccc1NC(=O)CSc1nc2ncc(Cl)cc2[nH]1 | ? | . | . | ? | . | 6% | 11% | .
Cc1c(NC(=O)C2CC(c3c(F)cccc3Cl)=NO2)c(=O)n(-c2ccccc2)n1C (centres undefined) | -17% | 21% | 2.4% | -2% | 3% | -7% | 3% | ?
O=C(/C=C/c1ccc(F)cc1)Nc1ccc(S(=O)(=O)Nc2ncccn2)cc1 | -1% | . | . | -2% | . | 25% | 0% | .
C/C(=N/NS(=O)(=O)c1ccc(F)cc1)c1ccc(NC(=O)c2ccc(C)o2)cc1 | 96%[activator] | -16% | -11% | 0% | -2% | -9% | -10% | -6%
NNC(=O)c1ccc(COc2ccc3c(c2)CCC3)o1 | 0% | ? | 0.2% | 17% | 1% | 2% | -36% | -25%
CCCn1c(N)c(C(=O)CSc2ncc(C(F)(F)F)cc2Cl)c(=O)[nH]c1=O | ? | ? | . | . | . | 11% | -1% | 3.2µM*
O=C(Cn1cnc2ccccc2c1=O)NCCC(=O)Nc1ccc2c(c1)OCCO2 | -9% | 0% | 5.6% | 5% | 0% | -4% | -2% | 17%
O=C1C2C(C(=O)N1/N=C/c1ccc([N+](=O)[O-])o1)C1C=CC2C12CC2 (centres undefined) | ? | ? | -6.2% | -46% | -4% | ? | ? | ?
CCN1CCN(C(C)C(=O)Nc2c(C)n(C)n(-c3ccccc3)c2=O)CC1 (centres undefined) | 6% | 17% | 7.2% | 0% | -5% | -2% | 8% | 5%
O=C1CCCc2c1nc(-c1ccccc1F)n2O | -2% | 13%[46.1 µM] | . | 0% | . | -6% | 6% | 17%
O=C(CCNS(=O)(=O)c1ccccc1)OCC(=O)c1ccc[nH]1 | -26% | -13% | . | . | . | -24% | -4% | -9%[46.1 µM]
Cc1ccc(-n2c(C)c(C)c3c(NCCN(C)C)ncnc32)cc1 | 1% | . | . | 3% | . | 8% | 1% | .
Cc1ccc(Cl)cc1N1CCN(C(=O)c2ccc(NC3=NC4CS(=O)(=O)CC4S3)cc2)CC1 (centres undefined) | 10% | . | . | 19% | . | 13% | 1% | .
Cc1cc(NC(=O)COc2ccccc2C(N)=O)no1 | 29% | ? | . | . | . | 0% | -2% | -2%[46.1 µM]
CCOc1ccccc1NC(=O)Cn1c(C)cc(COC)c(C#N)c1=O | 0% | 6% | -3.5% | -1% | -1% | -5% | -6% | 2%
COc1ccc(C(=O)NNC(=O)C2CCCN(C3CC(=O)N(c4ccccc4)C3=O)C2)cc1 (centres undefined) | 14% | . | . | -5% | . | ? | -1% | .
Cc1nn(Cc2ccc(C(=O)N3N=C(C(F)F)CC3(O)C(F)F)cc2)c(C)c1[N+](=O)[O-] (centres undefined) | -23% | -2% | -5.5% | 4% | -2% | 4% | -14% | 22%[14.3 µM]
O=C(Nc1cccc(NC(=O)c2ccccc2Cl)c1)c1cccc(Br)c1 | -4% | . | 1.6% | . | 7.9µM* | . | . | -29%[46.1 µM]
CN(CCCNC(=O)c1ccccc1F)CCCNC(=O)c1ccccc1F | 4% | . | . | 11% | . | 0% | 12% | .
COc1ccc(OCCNc2cc(N3CCOCC3)ccc2[N+](=O)[O-])cc1 | ? | ? | -2.5% | -24% | 27% | 3% | -8% | -14%
Cc1nn(C(=O)c2nn(C)cc2[N+](=O)[O-])c(C)c1Cl | -27% | 3%[46.1 µM] | . | . | . | 10% | -4% | 15%[46.1 µM]
CC(C)C(=O)N1CCN(c2ccc(NC(=O)c3ccco3)cc2Cl)CC1 | -1% | 13%[46.1 µM] | . | 7% | . | -10% | -2% | -8%[46.1 µM]
Cc1ccc(NC(=O)c2noc3c2CCCCC3)cc1C | 11% | ? | -1.0% | 1% | 4% | -21% | -5% | ?
CCN(CC)c1ccc(/C=N/NC(=O)c2ccco2)cc1 | -37% | 7.3µM* | -10% | -25% | -8% | -7% | -4% | 4.5µM*
COc1ccc(C(=O)c2ccccc2)cc1Br | 19% | -1% | -10% | -56% | -5% | ? | -7% | -3%
Cc1cccc(C)c1OCC(=O)NC(Cc1c[nH]c2ccccc12)C(=O)O (centres undefined) | -2%&2% | -18%&-2%[46.1 µM] | -11% | . | ? | -5% | 0% | 24%&0%[46.1 µM]
CCOC(=O)CN=C/C(C(C)=O)=C(/C)O | -7% | . | . | 3% | . | -2% | -2% | .
CC(C)(C)c1ccc(C2(C)NC(=O)N(CC(=O)NCc3cccs3)C2=O)cc1 (centres undefined) | -5% | 14% | -1.6% | -2% | 7% | -26% | 4% | -3%
Cc1nnc(NC(=O)CCSCCC(=O)Nc2nnc(C)s2)s1 | 1% | . | . | 4% | . | -15% | 0% | .
CCNC(=S)N/N=C(\C)c1cc2ccccc2o1 | 12% | 25% | -9.0% | 3% | -10% | -25% | 4% | 3%
CCCn1c2c(c(O)c(C(=O)NC)c1=O)CCCC2 | -13% | 0% | -4.6% | -113% | 1% | -19% | -14% | 6%
C=CCOC(=O)C1=C(C)Nc2nnnn2C1c1cccs1 (centres undefined) | -17% | ? | -0.1% | 4% | 1% | 11% | -5% | -13%
O=C(NCc1ccco1)c1ccc2snnc2c1 | 8% | 4% | -8.3% | 1% | -13% | 25% | 1% | 2%
c1ccc(COc2ccc(OCCCCN3CCCC3)cc2)cc1 | -12% | ? | -1.1% | 0% | -7% | 4% | 0% | -23%
Cc1ccc(SCC(=O)OCC(=O)N2CCN(C(=O)c3ccco3)CC2)c(C)c1 | -6% | 14% | . | . | . | 5% | -2% | -2%
COc1ccc(C(=O)/C(=C/N(C)C)S(=O)(=O)c2ccccc2)cc1 | 80%[activator] | ? | . | 5% | . | 3% | 0% | 23%
COC(=O)c1[nH]c2ccc(C)cc2c1NC(=O)Nc1ccc(OC)cc1 | 10% | -20% | 2.9% | -3% | 30% | -1% | 6% | -16%
CSc1ncccc1C(=O)Nc1cc(C)ccn1 | 22% | . | . | -7% | . | -12% | -7% | .
COc1ccc(-n2c(COc3ccc(C)cc3)nnc2SCC(N)=O)cc1 | -25% | -11%[46.1 µM] | 4.7% | -6% | 10% | 13% | 5% | -26%
CCSc1nc2ccccc2n1C(=O)Oc1ccccc1 | -5% | 14%[46.1 µM] | -4.3% | -7% | -16% | 2% | -9% | 0%
CCn1cc(C(=O)NCc2ccc(OC)cc2OC)c(=O)c2ccc(C)nc21 | . | . | -12% | -14% | ? | . | -1% | .
COCCNC(=O)CN1CCC(NC(=O)C(C)(C)C)CC1 | . | 9% | -2.3% | 6% | 10% | 5% | -7% | 4%
CCN(CC)c1ccc(/C=N/NC(=O)CC(C)C)cc1 | 66%[activator] | 17% | . | -10% | . | -3% | 0% | ?

Five entries out of the list, arranged by molecular weight, falling:
SMILES | StopGo reporter | Marburg entry inh | Cruzain Triton | NS1 function inh | Cruzain inh noDet | RE007 growth inh | SARS PLpro yeast | LASV entry inh
CCn1cc(C(=O)NCc2ccc(OC)cc2OC)c(=O)c2ccc(C)nc21 | . | . | -12% | -14% | ? | . | -1% | .
COC(=O)c1[nH]c2ccc(C)cc2c1NC(=O)Nc1ccc(OC)cc1 | 10% | -20% | 2.9% | -3% | 30% | -1% | 6% | -16%
CCSc1nc2ccccc2n1C(=O)Oc1ccccc1 | -5% | 14%[46.1 µM] | -4.3% | -7% | -16% | 2% | -9% | 0%
CCN(CC)c1ccc(/C=N/NC(=O)CC(C)C)cc1 | 66%[activator] | 17% | . | -10% | . | -3% | 0% | ?
O=C(NCc1ccco1)c1ccc2snnc2c1 | 8% | 4% | -8.3% | 1% | -13% | 25% | 1% | 2%

New compounds follow.
SMILES | StopGo reporter | Marburg entry inh | Cruzain Triton | NS1 function inh | Cruzain inh noDet | RE007 growth inh | SARS PLpro yeast | LASV entry inh
Cc1onc(-c2ccccc2)c1CNC(=O)C1COc2ccccc2O1 (centres undefined) | -23% | 28%[14.2 µM] | . | -4% | . | -1% | 0% | -5%
CSc1ccccc1NC(=O)C1CCCO1 (centres undefined) | 15% | 4% | 0.4% | 2% | 11% | -10% | 13% | ?
COc1ccccc1C(=O)C1CCCN(C(=O)c2cn3cc(Cl)ccc3n2)C1 (centres undefined) | 19% | 18%[46.1 µM] | . | 2% | . | -5% | 0% | 0%[46.1 µM]
CC(C)S(=O)(=O)C1=NSC2=NC(=O)/C(=C\c3ccc(OC(=O)c4ccco4)cc3)C(=N)N21 | -8% | . | . | -20% | . | -6% | -1% | .
CCOC(=O)c1ccc(S(=O)(=O)N2CCN(CC(=O)NC(=O)NC3CCCCC3)CC2)cc1 | -5% | -4%&5% | -1.5% | -8% | ? | 0% | 1% | 1%
Cc1ccc(C(=O)NCc2cccc(C(F)(F)F)c2)cc1S(=O)(=O)N1CCCCC1 | ? | -6%[46.1 µM] | . | . | . | 2% | 0% | -9%
CCOC(=O)/C(C#N)=C/C=C1\C=Cc2ccccc2N1CC | 9% | . | . | 0% | . | -13% | -1% | .
